UCH37 inh: blocks the human deubiquitinase UCH37; purified proteasome/UCH37, Ub-AMC cleavage fluorescence; inhibition, % (concentration not given with the values); 330,000 compounds, 0.33% hits;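 active = mean of two replicates above 20%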;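 note: 0% = compound-free wells with enzyme and 100% = wells lacking proteasome; stock transfer was 100 nL into about 20 µL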
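Schedule: 30 min plus 25 min, room temperature / Material: human UCH37 within purified proteasomes / Technique: AMC fluorescence intensity at 355/460 nm / Buffer or medium: pH 7.4 Tris-HCl (50 mM) with ovalbumin, ATP-MgCl2, DTT / Controls: wells without proteasome as full block, compound-free enzyme plus substrate as uninhibited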
Vif A3G: inhibitors of Vif binding to APOBEC3G peptide, primary screen, biochemical, TR-FRET, GST-Vif 1-94, biotin-A3G peptide, dose response retest (AID 1117319) | TR-FRET GST-Vif / biotin-A3G peptide binding; higher % means a stronger effect; test concentration not given here; strong numbers were not always called active | inhibition, %, or IC50 in µM where a hit was titrated | 260,000 compounds, 0.57% hits;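 active = above the screen mean plus three standard deviations and confirmed in dose response; inconclusive = results disagree or hit not tested in dose response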;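 note: Vif residues 1-94 fused to GST binding biotinylated APOBEC3G peptide 110-148; 0% = full assay without inhibitor and 100% = GST in place of GST-Vif; retest series ran down from 100 µM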
B2AR ag: agonists of human beta-2 adrenergic receptor inducing internalization; Am2.2-beta2AR cells, FAP receptor internalization, flow cytometry; reference of the scale not given here; response, % (concentration not given with the values); 340,000 compounds, 0.43% hits; AID 504454;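 active = response above a set limit, near 3 SD of response in nonfluorescent compounds, cut at about 42% in these data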;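 note: stock transfer was 100 nL into about 11 µL; a reference agonist was the positive control; negative values mostly stem from fluorescent compounds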
Target sequence (P07550 whole entry, looked up): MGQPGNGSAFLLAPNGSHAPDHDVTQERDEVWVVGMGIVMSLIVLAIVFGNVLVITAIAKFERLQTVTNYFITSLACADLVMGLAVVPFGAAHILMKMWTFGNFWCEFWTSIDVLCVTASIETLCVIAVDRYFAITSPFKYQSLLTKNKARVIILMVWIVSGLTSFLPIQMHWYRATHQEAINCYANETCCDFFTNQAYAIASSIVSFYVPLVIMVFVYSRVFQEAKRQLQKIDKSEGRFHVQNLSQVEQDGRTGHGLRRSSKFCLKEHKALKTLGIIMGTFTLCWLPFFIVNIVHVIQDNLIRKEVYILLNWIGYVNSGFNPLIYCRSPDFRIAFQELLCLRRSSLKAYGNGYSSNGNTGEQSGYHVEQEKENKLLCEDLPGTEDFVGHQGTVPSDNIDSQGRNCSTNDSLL
Ecoli growth: E. coli growth inhibition; Escherichia coli growth, OD600, 23 h; active compounds read low; OD600 absorbance (test concentration not listed); 330,000 compounds, 0.21% hits; AID 1053175;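 active = OD600 absorbance below the run mean of sample wells minus 3.6 SD, in any replicate, cut at about 0.56 in these data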;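 note: stock transfer was 300 nL into about 60 µL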
Bfl-1 A1 inh: inhibitors of the anti-apoptotic protein A1, read as caspase activation | caspase activation, % (test concentration not listed) | MEF A1-2A-BIM cells, Caspase-Glo 3/7 luminescence, 3 h; percent of clofoctol response, vehicle zero | AID 2462 | 330,000 compounds, 0.066% hits;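 active = over half of replicate activation scores above 10%, or exactly half above 10 with the replicate mean above 10; inconclusive = replicate mean below 10 yet half the replicates above 10; inactive = over half of replicates below 10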;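 note: wells of about 30 µL received 50 nL stock; many hits fall short of the cut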
LANA-H2A inh: blocks KSHV LANA binding to histone H2A/H2B | cell-free LANA-H2A/H2B peptide, fluorescence polarization | inhibition, % (concentration not given with the values) | 320,000 compounds, 0.6% hits | AID 2629; in the data active = inhibition mostly above about 10%, no sharp cut-off; inactive = mostly below about 6.7%;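 note: stock transfer was 7.5 nL into about 10 µL; 0% = median of vehicle wells and 100% = median of positive control wells; one replicate is shown; the record names a cut of 25% in any replicate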
HNF4A DNA FP: change in binding of human HNF4 alpha to DNA. activity change, % at 10 µM. 360,000 compounds, 0.3% hits. HNF4a-FITC DNA binding, fluorescence polarization, 1 h. P41235; in the data active = activity change above about 30%, passing the limit was not always enough;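 note: controls were the assay level and a saturating level of protein; the project sought stronger binding though the title names inhibitors; some compounds called inactive have numbers as strong as hits; positive values seem to mean higher polarization but the record does not say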
Target sequence (P41235 whole entry, looked up): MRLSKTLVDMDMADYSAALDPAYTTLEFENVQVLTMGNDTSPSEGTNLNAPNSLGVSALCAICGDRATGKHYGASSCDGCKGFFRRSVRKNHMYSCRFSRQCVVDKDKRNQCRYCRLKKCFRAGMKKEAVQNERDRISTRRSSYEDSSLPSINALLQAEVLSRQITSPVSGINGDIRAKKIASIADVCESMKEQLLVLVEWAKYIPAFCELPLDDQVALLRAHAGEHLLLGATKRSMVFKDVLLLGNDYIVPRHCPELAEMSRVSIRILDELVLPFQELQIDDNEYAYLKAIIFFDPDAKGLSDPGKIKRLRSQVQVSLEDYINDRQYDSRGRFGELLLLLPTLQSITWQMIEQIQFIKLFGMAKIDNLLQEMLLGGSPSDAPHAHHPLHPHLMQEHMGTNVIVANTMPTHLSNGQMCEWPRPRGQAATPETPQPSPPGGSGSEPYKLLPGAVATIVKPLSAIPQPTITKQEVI
An asterisk follows results filed as active; ? = inconclusive; / = no result given.

SMILES | UCH37 inh | Vif A3G | B2AR ag | Ecoli growth | Bfl-1 A1 inh | LANA-H2A inh | HNF4A DNA FP
Cc1cc2c(cc1C)N(Cc1ccccc1)C1=NCCCN12 | 4.1 | -5% | 6 | 0.7 | -0.2 | 0.9 | -0.9
CCc1nc2ccccc2n(CCOCCn2c(=O)c(CC)nc3ccccc32)c1=O | -0.5 | / | -4 | 0.72 | / | / | -3.1
Cc1ccc(OC(=O)c2cccc(C(=O)Oc3ccc(C)cc3)n2)cc1 | 1.8 | 10% | 2 | 0.7 | 0.1 | 0.4 | 0.7
CN(C(=O)COC(=O)c1ccc(C#N)cc1)c1ccccc1 | 5.5 | -6% | -8 | 0.69 | -0.5 | -2.6 | -4.0
CCN1C(=O)C2(C(C#N)=C(N)Oc3cc(C)oc(=O)c32)c2ccccc21 (stereo unspecified) | 3.8 | -5% | 2 | 0.7 | 2.0 | 0.1 | 5.5
CC(/C=N/n1c(-c2ccc(C)cc2)n[nH]c1=S)=C\c1ccco1 | / | / | -6 | / | -0.5 | -1.0 | -0.8
CN(C)c1ccc(S(=O)(=O)N2CCCCC2)cc1NC(=O)CCNC(=O)c1ccc(Cl)cc1 | -0.1 | / | 5 | 0.62 | 0.4 | 3.3 | 3.3
Cc1cccn2c(=O)c3cc(C(=O)NCc4ccco4)c(=N)n(C4CCCC4)c3nc12 | -194 | -4% | -3 | 0.67 | 0.8 | 3.3 | 10
CC(C)(NO)/C(=N\O)c1ccccc1 | / | 64% | -2 | / | -0.4 | -4.9 | -1.1
Cc1cc(NC(=O)CCSc2nc(-c3ccco3)cc(C(F)(F)F)n2)n(-c2ccccc2)n1 | -6.7 | / | -12 | 0.76 | 0.6 | 17 | 0.5
O=C(c1cnn2c(C(F)F)cc(-c3ccccc3)nc12)N1CCOCC1 | -32 | ? | -4 | 0.74 | 0.2 | -1.7 | -1.2
O=C1CC(N2CCN(c3ccc(Cl)cc3)CC2)C(=O)N1c1ccc(F)cc1 (stereo unspecified) | 1.9 | / | 2 | 0.7 | 1.4 | -1.0 | -0.8
O=C(COc1nncc2ccccc12)NCC(F)(F)F | -1.9 | / | 4 | 0.69 | -0.8 | -12 | 3.4
CCN(C(=O)Cn1c(=O)oc2cc(S(=O)(=O)N3CCOCC3)ccc21)c1ccccc1 | 2.7 | / | 2 | 0.68 | 1.1 | -2.7 | 4.6
COc1cc(NC(=O)c2ccc(C)c([N+](=O)[O-])c2)ccc1NC(=O)c1ccco1 | 2.7 | 8% | / | 0.72 | 0.6 | 4.2 | /
COc1ccc(OC)c(C2Nc3nc4ccccc4n3C(C)=C2C(=O)Nc2ccc(C)cc2C)c1 (stereo unspecified) | -3.7 | 9% | 4 | 0.71 | / | / | 14
Cc1ccc(Nc2c(N)c(=O)oc3ccccc23)cc1 | -1.6 | -9% | 0 | 0.66 | 0.1 | 0.9 | 1.6
CCN1CCN(C(=O)NCc2ccccc2)CC1 | 5.3 | 5% | 1 | 0.71 | 0.5 | 2.9 | -4.5
Cc1nc(CS(=O)c2ccc(Cl)cc2)cc(NCc2ccc(Cl)cc2Cl)n1 (stereo unspecified) | 1.3 | 3% | -6 | 0.72 | -0.2 | -3.3 | 0.0
CC(C)(C)N(Cc1ccccc1)C(=O)COC(=O)C1CCCCC1 | 4.2 | 1% | -4 | 0.7 | 0.2 | -3.0 | -2.5
O=C(NCc1ccc(F)cc1)c1ccc(S(=O)(=O)N2CCCCC2)cc1 | 5.4 | -19% | -7 | 0.7 | 0.1 | 4.9 | -2.5
CCc1ccc(C(=O)NC(=S)NCc2cccnc2)cc1 | 4.5 | / | -6 | 0.69 | 0.5 | -1.1 | 5.5
O=C(O)c1cc(Cl)c(Cl)cc1C(=O)Nc1cccc2ncccc12 | / | / | 1 | / | -0.4 | 3.7 | 4.3
NC(=O)CN1C(=O)C(=O)N(Cc2ccc(F)cc2)C1=O | 1.9 | 8% | -5 | 0.7 | 1.0 | 1.7 | -1.0
CCOC(=O)c1sc(NC(=O)CCc2ccccc2)nc1C | 2.6 | / | -2 | 0.68 | 0.2 | 6.9 | -1.7
FC(F)(F)c1nc(Oc2ccccc2)c2ccccc2n1 | 1.6 | 5% | -6 | 0.71 | -0.6 | 11 | -3.6
CCOCCOC(=O)c1[nH]c2c(c1C)C(=O)CC(c1ccc(OC)c(OC)c1)C2 (stereo unspecified) | 2.9 | 3% | / | 0.66 | 0.4 | -4.6 | -1.3
COc1ccc(-c2cnc3c(c2)CCC3(C#N)C#N)cc1 | -3.4 | ? | 24 | 0.64 | 1.1 | -262 | 2.1
Clc1ccc(CN2CCc3c([nH]c4ccccc34)C2)cc1Cl | / | / | 19 | / | 0.3 | 1.6 | 2.9
CSc1nc(O)c(C(c2ccc(O)cc2)c2c(O)nc(SC)[nH]c2=O)c(=O)[nH]1 | 2.1 | / | -2 | 0.72 | 0.2 | -6.3 | -3.3
CCCc1nn(C)c2c(=O)[nH]c(-c3cc(S(=O)(=O)Nc4ccc(NC(C)=O)cc4)ccc3OCC)nc12 | 2.6 | 2% | 24 | 0.65 | 0.8 | -1.9 | -1.9
Cc1ccccc1CN(C)C(=O)COC(=O)c1ccc2[nH]c(C)c(C)c2c1 | -0.3 | -9% | -1 | 0.74 | 0.8 | -1.4 | 2.2
CN(C)c1ncnc2c1ncn2C1CCCO1 (stereo unspecified) | 1.2 | -4% | -6 | 0.66 | / | / | 0.3
CCNc1nc(NCC)nc(C(=O)OCCO)n1 | 4.4 | -1% | 3 | 0.72 | 0.8 | 0.0 | 1.1
O=C(O)c1ccccc1C(=O)NCc1ccccc1 | 0.7 | 3% | 6 | 0.69 | 1.1 | -0.2 | 1.7
CC1(C)CC(=O)C(C(=O)c2ccccc2)C(=O)C1 | 1.0 | -1% | -3 | 0.68 | -0.3 | 5.3 | 4.5

Just Ecoli growth (2 entries from above):
| compound | Ecoli growth |
| --- | --- |
| O=C1CC(N2CCN(c3ccc(Cl)cc3)CC2)C(=O)N1c1ccc(F)cc1 (stereo unspecified) | 0.7 |
| O=C(COc1nncc2ccccc12)NCC(F)(F)F | 0.69 |

(next part)
SMILES | UCH37 inh | Vif A3G | B2AR ag | Ecoli growth | Bfl-1 A1 inh | LANA-H2A inh | HNF4A DNA FP
Cc1nc(C)c(-c2ccc(SCC(=O)Nc3cccc(Cl)c3C)nn2)s1 | 5.0 | / | 9 | 0.71 | 0.5 | -3.3 | 7.6
O=C(CCC1CCCC1)NNC(=O)COc1ccc(Br)cc1 | 0.2 | / | 0 | 0.72 | -0.7 | 2.5 | 0.0
O=C(NCc1ccc(Cl)cc1)c1ccc(Br)o1 | -0.7 | -3% | -1 | 0.63 | -0.7 | 3.4 | 3.9
O=C(Cc1ccc([N+](=O)[O-])cc1)N1N=C(C2CC2)CC1(O)C(F)(F)F (stereo unspecified) | 0.4 | -2% | 1 | 0.7 | 0.7 | 0.6 | 0.3
CCc1[nH]c(=S)c(C#N)c2c1CCCC2 | 1.8 | -7% | -5 | 0.64 | 0.2 | 2.4 | 0.2
Cc1ccc(-c2cc(C(=O)N/N=C/c3ccccc3)n[nH]2)o1 | / | / | 6 | / | -0.1 | 7.4 | 1.6
CC1=C(C(=O)OC(C)C)C(c2ccccn2)n2ncnc2N1 (stereo unspecified) | 1.9 | -1% | 11 | 0.78 | 1.7 | 6.8 | 5.7
NNC(=O)CNC(=O)C12CC3CC(CC(C3)C1)C2 | 4.2 | 0% | 1 | 0.69 | 0.6 | -0.9 | -12
COc1ccc(NC(=O)C2COc3ccccc3O2)cc1 (stereo unspecified) | 1.5 | / | 1 | 0.67 | 0.0 | -1.5 | -1.4
COc1cc(OC)cc(C(=O)N2CCN(c3ncccn3)CC2)c1 | -4.6 | 8% | 1 | 0.71 | 0.4 | 0.6 | -2.0
Nc1nc(SCC(=O)N2N=C(c3ccc(Cl)cc3)CC2c2ccco2)n[nH]1 (stereo unspecified) | 1.8 | 24% | -4 | 0.69 | -0.6 | 2.7 | -0.1
CNC(=O)CCCCC(=O)N/N=C/c1ccc(Cl)cc1Cl | / | 1% | -6 | / | -0.7 | 2.2 | 0.4
CCC(C)(C)NC(=O)CN(C(=O)c1snc(C(N)=O)c1N)c1ccc2c(c1)OCO2 | 2.5 | 12% | 3 | 0.67 | -0.2 | -0.4 | -0.7
CC(C)(C)CC(=O)OCC(=O)Nc1cc(C(C)(C)C)nn1-c1ccccc1 | 1.5 | 1% | 8 | 0.75 | 0.2 | -8.8 | 0.8
Cc1cc(C)c2nc(NNC(=O)c3ccc(S(=O)(=O)N4CCCCC4)cc3)sc2c1 | 0.3 | 26% | 8 | 0.73 | -0.1 | -2.6 | 2.3
C[n+]1cnc(-c2ccccc2)cc1-c1ccccc1 | -6.6 | 17% | -5 | 0.63 | 0.2 | 11 | 1.6
COc1ccc(/C(C)=N/NC(=O)CNC(=O)/C=C/c2ccccc2OC)cc1 | / | -2% | 6 | / | -0.3 | 0.6 | 3.7
Cc1c(CCOC(=O)C23CC4(C)CC(C)(CC(C)(C4)C2)C3)sc[n+]1CC(=O)c1ccccc1 | 1.1 | 18% | 6 | 0.62 | 0.7 | -5.8 | 81*
COc1cccc(C(=O)Nc2cc(C)ccc2NC(=O)COc2ccccc2)c1 | 2.2 | -3% | 14 | 0.68 | -0.5 | 9.9 | 1.8
COc1ccccc1N1CCN(CCCNC(=O)C2CCCN(c3ncnc4c3nc3n4CCCCC3)C2)CC1 (stereo unspecified) | 5.6 | / | 3 | 0.68 | -0.3 | -0.4 | -2.5
O=C1C2C3C=CC(C3)C2C(=O)N1CNc1ccccn1 (stereo unspecified) | 3.0 | 0% | -7 | 0.71 | 0.2 | -6.4 | 1.6
COC(=O)c1cnc(NNC(=O)c2ccc([N+](=O)[O-])cc2)nc1C(F)(F)F | 7.5 | 10% | -1 | 0.69 | 0.1 | -9.3 | -1.6
CCc1ccc(NS(=O)(=O)c2ccc3oc(=O)ccc3c2)cc1 | 4.4 | 0% | -10 | 0.64 | 0.2 | -3.5 | -3.0
Cc1nc2ccccc2nc1N1CCCC1 | 8.7 | 7% | -7 | 0.71 | 0.1 | 10 | -0.1
Fc1ccc(/C=N/Nc2nc3ccccc3[nH]2)cc1F | / | -5% | 4 | / | -0.4 | 1.3 | -1.1
COc1ccc(NC(=O)c2cn(C)c(=O)c3cc(OC)c(OC)cc23)c(OC)c1 | 1.6 | -8% | 6 | 0.68 | 0.4 | -7.5 | -0.4
COc1ccccc1N1CCN(C(=O)CCCn2c(=O)[nH]c3ccsc3c2=O)CC1 | 4.2 | 10% | -7 | 0.72 | -0.4 | 2.0 | 0.8
O=c1cc(NCc2ccco2)[nH]c(=O)n1-c1ccc(Br)cc1 | 3.0 | 30% | 7 | 0.65 | 0.2 | -0.2 | 3.2
Cc1ccc(-c2c(C)sc3nc(CN4CCN(CC(=O)NC5CC5)CC4)[nH]c(=O)c23)cc1 | 0.9 | -5% | 12 | 0.71 | / | / | 9.3
CSC1=NCCN1C(=O)c1ccc(S(=O)(=O)N2CCCC2)cc1 | 0.2 | 3% | 8 | 0.74 | 0.5 | 1.5 | -0.4
CCC(CC)c1nnc(NC(=O)c2cccc(S(=O)(=O)N3CCc4ccccc43)c2)s1 | 3.7 | -5% | 3 | 0.68 | 0.9 | -8.4 | 2.2
CC(C)(C)c1ccc2c(c1)C(=O)c1ccccc1C2=O | 5.1 | 11% | 2 | 0.67 | -9.2 | 0.8 | -1.0
COc1ccc(-c2nc(CN3CCC(C(=O)NC4CC4)CC3)c(C)o2)cc1OC | 1.5 | / | -4 | 0.66 | 0.1 | 0.7 | 2.9
